Ecoli growth – E. coli growth inhibition; OD600 absorbance (no concentration beside the values); actives 0.21% (n = 330,000); Escherichia coli growth, OD600, 23 h; active compounds read low;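 active means OD600 absorbance below the run mean of sample wells minus 3.6 SD, in any replicate, cut at about 0.56 in these data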;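 further: stock transfer was 300 nL into about 60 µL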
T cruzi inh – blocks replication of Trypanosoma cruzi. actives 1.4% (n = 300,000). inhibition, % (test concentration not listed). AID 1885. T. cruzi beta-gal in NIH3T3, luminescence, 90 h;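 active means mean inhibition across valid replicates above about 55%, limit read from the data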;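 further: signal also drops with host cell toxicity which is not excluded here; 0% = plate median of DMSO wells and 100% = zero luminescence signal; higher percent means less beta-gal luminescence so fewer parasites; stock transfer was 50 nL into about 50 µL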
Beta cell apopt – blocks beta cell apoptosis | INS-1E cytokine-induced death, ATP luminescence, 48 h; percent of positive-control rescue, neutral wells zero | protection from apoptosis, % (concentration not given with the values) | actives 0.8% (n = 300,000) | AID 435005;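 active means all replicates at 75% or more, or half of them and the mean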;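 further: 0% = cytokine-treated negative control wells and 100% = positive control rescue; higher means more ATP so stronger rescue from cytokine killing; wells of about 40 µL received 100 nL stock; the first replicate is given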
FGF22 binding – binders of recombinant human FGF22 by thermal shift | Q9HCT0 | SYPRO orange fluorescence; percent of sucrose octasulfate shift, DMSO zero | calls only at 9.99 µM | actives 1.5% (n = 340,000);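 active means melting point raised past a set limit in the mean and every replicate; three in four hits are not shown here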
Target sequence (Q9HCT0 whole entry, looked up): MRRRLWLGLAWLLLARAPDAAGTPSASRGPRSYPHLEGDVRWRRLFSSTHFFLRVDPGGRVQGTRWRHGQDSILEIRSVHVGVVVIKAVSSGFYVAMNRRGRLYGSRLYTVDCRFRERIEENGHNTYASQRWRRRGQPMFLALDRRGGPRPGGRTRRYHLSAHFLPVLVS
AF4-AF9 inh – inhibitors of human MLL-AF4/AF9 interaction | AID 651704 | actives 0.47% (n = 350,000) | AlphaScreen, biotin-AF4 peptide binding to FLAG-AF9 | inhibition, % at 10 µM;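 active means every replicate reaching a set inhibition limit, whatever the replicate mean, cut at about 25% in these data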;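 further: 0% = plate neutral control median and 100% = total signal loss; the record names both 10 and 1 µM as test concentration; the first replicate is given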
A1 inh – inhibitors of the anti-apoptotic protein A1, read as caspase activation. MEF A1-2A-BIM cells, Caspase-Glo 3/7 luminescence, 3 h; percent of clofoctol response, vehicle zero. caspase activation, % (test concentration not listed). actives 0.066% (n = 330,000). AID 2462;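 active means over half of replicate activation scores above 10%, or exactly half above 10 with the replicate mean above 10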;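 further: wells of about 30 µL received 50 nL stock; many hits fall short of the cut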
rRNA inh HTS – selective bacterial rRNA inhibition in E. coli. E. coli WT GFP vs humanized-ribosome RFP mutants, fluorescence, 24 h; active compounds read low; DMSO median 0, no signal -100. actives 1.6% (n = 350,000). AID 720706. GFP signal change (wild-type ribosome), % (test concentration not listed);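 active means significant combined selectivity score with lowered wild-type GFP, culture density cut under 30%, mutant RFP and density less affected; inactive means any of these conditions unmet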; further: one replicate is shown; some compounds called inactive have numbers as strong as hits
UCH37 inh – inhibitors of human deubiquitinating enzyme UCH37; Q9Y5K5; purified proteasome/UCH37, Ub-AMC cleavage fluorescence; inhibition, % (test concentration not listed); actives 0.33% (n = 330,000);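 active means mean of two replicates above 20%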;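 further: 0% = compound-free wells with enzyme and 100% = wells lacking proteasome; stock transfer was 100 nL into about 20 µL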
Target sequence (Q9Y5K5 whole entry, looked up): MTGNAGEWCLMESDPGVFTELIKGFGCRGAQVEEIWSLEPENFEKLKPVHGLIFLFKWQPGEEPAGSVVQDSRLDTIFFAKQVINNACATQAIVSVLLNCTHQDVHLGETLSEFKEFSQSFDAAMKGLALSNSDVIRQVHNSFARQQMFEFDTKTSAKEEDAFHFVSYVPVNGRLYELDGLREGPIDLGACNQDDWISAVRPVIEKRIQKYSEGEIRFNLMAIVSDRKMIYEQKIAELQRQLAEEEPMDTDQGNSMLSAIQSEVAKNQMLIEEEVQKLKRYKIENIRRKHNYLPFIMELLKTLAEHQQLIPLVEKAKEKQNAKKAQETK
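Assay system: Proteasome-bound UCH37. Buffer or medium: pH 7.4 Tris-HCl (50 mM) with ovalbumin, ATP-MgCl2, DTT. Incubation: 30 min preincubation with enzyme, 25 min cleavage at room temperature. Measured by: fluorescence, ex 355 nm, em 460 nm. Read-out basis: percent inhibition. Control set: wells without proteasome as full block, compound-free enzyme plus substrate as uninhibited.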
rRNA inh HTS OD600 – second read-out of rRNA inh HTS, no call of its own (marks repeat the call); OD600 change, %; measured here: OD600 growth;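 optical density of the mix in the first replicate; 0 = DMSO median and -100 = no signal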
rRNA inh HTS RFP – second read-out of rRNA inh HTS, no call of its own (marks repeat the call); RFP signal change, %; measured here: RFP humanized mutant strains;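 first replicate; 0 = DMSO median and -100 = no signal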
Starred values were filed as active, the others as inactive; i = inactive; / = no result given. Not all compounds are listed; rates above refer to the full screens.

SMILES	Ecoli growth	T cruzi inh	Beta cell apopt	FGF22 binding	AF4-AF9 inh	A1 inh	rRNA inh HTS	rRNA inh HTS OD600	rRNA inh HTS RFP	UCH37 inh
C=CCn1cnc2scc(-c3ccccc3)c2c1=O	0.66	-15	-5	/	/	0.2	/	/	/	5.0
CCOCCCNS(=O)(=O)c1ccc2c(c1)oc(=O)n2CC(=O)OCC	0.7	-16	1	/	/	-0.1	-5	-13	5.9	0.6
CCCn1c(SCC(=O)NCCc2ccccc2)nnc1-c1cccnc1	0.68	-23	-5	/	/	1.1	/	/	/	1.6
O=C(Nc1nccs1)c1ccc(Br)o1	0.58	9	3	/	/	-3.1	/	/	/	2.0
Cc1ccc(NC(=O)Cn2c(=O)c3cccn3c3ccccc32)cc1	0.7	7	18	i	-1.8	0.6	10	15	9.7	0.1
Cc1ccc(-c2csc(/C=C3\SC(C)C(=O)N3CC(=O)Nc3ccccc3F)n2)cc1 (centres undefined)	0.72	21	-2	i	5.0	-0.1	3	3	-8.1	-5.7
CC1CCCCC1NC(=O)C1CCN(C(=O)c2sccc2-n2cccc2)CC1 (centres undefined)	0.79	-2	-1	i	-0.2	/	-3	-6	-0.8	-0.5
COc1cc(/C=C2\SC(=O)NC2=O)ccc1Oc1cnccn1	0.71	13	16	i	1.8	-1.5	5	-3	0.0	9.0
O=C(CCl)N(CCc1ccccc1)CCc1ccccc1	/	56*	3	i	-4.3	0.1	-2	-7	4.5	/
O=C(NCCO)C1CCN(S(=O)(=O)c2ccc(F)cc2)CC1	0.69	-3	-5	/	/	-0.8	/	/	/	0.7

Brought forward from above: 2 entries, then new ones.
SMILES	Ecoli growth	T cruzi inh	Beta cell apopt	FGF22 binding	AF4-AF9 inh	A1 inh	rRNA inh HTS	rRNA inh HTS OD600	rRNA inh HTS RFP	UCH37 inh
O=C(CCl)N(CCc1ccccc1)CCc1ccccc1	/	56*	3	i	-4.3	0.1	-2	-7	4.5	/
O=C(NCCO)C1CCN(S(=O)(=O)c2ccc(F)cc2)CC1	0.69	-3	-5	/	/	-0.8	/	/	/	0.7
O=C(CCC(=O)c1cccs1)NNC(=O)c1ccc(Cl)cc1	0.65	/	6	i	-0.9	-0.5	7	4	-1.7	1.5
C[C@H](NC(=O)c1ccccc1Cl)C(=O)OC(C(=O)Nc1cc(C(F)(F)F)ccc1Cl)c1ccccc1 (some centres undefined)	0.68	-7	0	/	/	1.2	/	/	/	3.7
CCC1(c2ccccc2)NC(=O)N(CC(=O)N(C)Cc2c(F)cccc2Cl)C1=O (centres undefined)	0.69	-3	-2	i	-1.0	1.9	-7	-5	-1.5	5.2
Cc1cnc(NC(=O)c2cc3c(C)nn(-c4ccccc4)c3s2)s1	0.69	8	13	i	-11	0.3	7	5	21	-124
CCCn1c(SCC(=O)NCCc2ccccc2)nnc1-c1ccccn1	0.73	-15	-2	/	/	-0.6	/	/	/	1.7
c1ccc2[nH]c(-c3ccc4c(c3)OCO4)nc2c1	0.65	1	57	i	-1.6	-8.8	-11	-12	-3.1	-2.2
Cc1ccc(Cl)cc1N1CCN(C(=O)CN(C2CCCCC2)S(C)(=O)=O)CC1	0.76	26	43	/	/	0.1	/	/	/	0.0
COC(=O)c1ccc(COc2cc(C)ccc2C)o1	0.66	-4	-4	i	-7.5	-0.3	-2	2	2.6	-0.2
CC1CC(C)CN(c2ccc([N+](=O)[O-])nc2)C1 (centres undefined)	0.63	-2	9	i	1.1	0.3	0	12	7.0	10.0
Cc1ccc(Cn2c(SCC(C)C)nc3c2c(=O)n(C)c(=O)n3C)cc1	0.63	16	2	/	/	0.9	/	/	/	4.9
CC[C@H](C)[C@H](NC(=O)OCc1ccccc1)C(=O)OCC(=O)N(C)CC(=O)Nc1ccccc1Cl	0.72	22	-4	i	-1.9	0.0	-2	1	3.1	-1.5
C=CCn1c(SCc2nc3ccccc3c(=O)[nH]2)nc2sc3c(c2c1=O)CCCC3	0.68	-11	0	/	/	0.7	/	/	/	-5.3
O=C(CCNC(=O)C1CCN(S(=O)(=O)c2ccc(F)cc2)CC1)NCCc1cccc(F)c1	0.68	10	-6	i	-1.7	-0.8	2	5	-2.4	0.9
O=C(N1CCCCCC1)N1CCN(C(=O)N2CCOCC2)CC1	0.79	-4	0	/	/	-0.1	/	/	/	1.8
O=C(NCc1cccs1)c1ccc([N+](=O)[O-])cc1	0.7	-20	-4	i	3.2	-0.2	2	6	0.3	5.4
O=C1OC(NC(=O)c2ccccc2)C(n2cc(CO)nn2)=C1Cl (centres undefined)	0.73	0	-6	/	/	-0.3	/	/	/	0.8
O=C1c2ccccc2NC(c2ccccc2)N1CCCN1CCOCC1 (centres undefined)	0.69	-9	-3	i	-3.3	-0.5	-4	-26	-4.2	-271
O=C(O)CSc1nnc(-c2ccc(Cl)cc2Cl)n1-c1ccc(Cl)cc1	/	-2	-5	i	-4.4	0.4	-29	-25	-5.7	/
CCSCc1nnc(SCC(=O)Nc2nccs2)n1CC	0.68	-17	1	i	-4.0	0.5	20	11	1.6	0.6
CNc1nnc(SCC(=O)c2cc(C)n(C3CC3)c2C)s1	/	/	-10	i	0.5	-0.9	/	/	/	/
COc1ccc(NC(=O)CSCC(=O)N(C)Cc2c(F)cccc2Cl)cc1	0.7	-3	2	i	4.4	-0.3	-8	-12	2.8	0.9

13 successive records from above:
SMILES	Ecoli growth	T cruzi inh	Beta cell apopt	FGF22 binding	AF4-AF9 inh	A1 inh	rRNA inh HTS	rRNA inh HTS OD600	rRNA inh HTS RFP	UCH37 inh
CC1CC(C)CN(c2ccc([N+](=O)[O-])nc2)C1 (centres undefined)	0.63	-2	9	i	1.1	0.3	0	12	7.0	10.0
Cc1ccc(Cn2c(SCC(C)C)nc3c2c(=O)n(C)c(=O)n3C)cc1	0.63	16	2	/	/	0.9	/	/	/	4.9
CC[C@H](C)[C@H](NC(=O)OCc1ccccc1)C(=O)OCC(=O)N(C)CC(=O)Nc1ccccc1Cl	0.72	22	-4	i	-1.9	0.0	-2	1	3.1	-1.5
C=CCn1c(SCc2nc3ccccc3c(=O)[nH]2)nc2sc3c(c2c1=O)CCCC3	0.68	-11	0	/	/	0.7	/	/	/	-5.3
O=C(CCNC(=O)C1CCN(S(=O)(=O)c2ccc(F)cc2)CC1)NCCc1cccc(F)c1	0.68	10	-6	i	-1.7	-0.8	2	5	-2.4	0.9
O=C(N1CCCCCC1)N1CCN(C(=O)N2CCOCC2)CC1	0.79	-4	0	/	/	-0.1	/	/	/	1.8
O=C(NCc1cccs1)c1ccc([N+](=O)[O-])cc1	0.7	-20	-4	i	3.2	-0.2	2	6	0.3	5.4
O=C1OC(NC(=O)c2ccccc2)C(n2cc(CO)nn2)=C1Cl (centres undefined)	0.73	0	-6	/	/	-0.3	/	/	/	0.8
O=C1c2ccccc2NC(c2ccccc2)N1CCCN1CCOCC1 (centres undefined)	0.69	-9	-3	i	-3.3	-0.5	-4	-26	-4.2	-271
O=C(O)CSc1nnc(-c2ccc(Cl)cc2Cl)n1-c1ccc(Cl)cc1	/	-2	-5	i	-4.4	0.4	-29	-25	-5.7	/
CCSCc1nnc(SCC(=O)Nc2nccs2)n1CC	0.68	-17	1	i	-4.0	0.5	20	11	1.6	0.6
CNc1nnc(SCC(=O)c2cc(C)n(C3CC3)c2C)s1	/	/	-10	i	0.5	-0.9	/	/	/	/
COc1ccc(NC(=O)CSCC(=O)N(C)Cc2c(F)cccc2Cl)cc1	0.7	-3	2	i	4.4	-0.3	-8	-12	2.8	0.9
